KCNQ2 block – KCNQ2 potassium channel inhibitors, primary screen, cell-based, CHO-K1, FluxOR thallium flux, B-score (AID 2156); Potassium voltage-gated channel subfamily KQT member 2 (Rattus norvegicus), O88943; 20 min; hits give low values; only compounds with negative scores are shown here; some inactives read as strong as hits; B-score at 10 µM; hit rate 1.1% among 310,000;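 active means fluorescence ratio B-score at most minus 3 library SDs, with starting brightness B-score within 2 library SDs, cut at about -5.5 in these data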
Target sequence (O88943 whole entry, looked up): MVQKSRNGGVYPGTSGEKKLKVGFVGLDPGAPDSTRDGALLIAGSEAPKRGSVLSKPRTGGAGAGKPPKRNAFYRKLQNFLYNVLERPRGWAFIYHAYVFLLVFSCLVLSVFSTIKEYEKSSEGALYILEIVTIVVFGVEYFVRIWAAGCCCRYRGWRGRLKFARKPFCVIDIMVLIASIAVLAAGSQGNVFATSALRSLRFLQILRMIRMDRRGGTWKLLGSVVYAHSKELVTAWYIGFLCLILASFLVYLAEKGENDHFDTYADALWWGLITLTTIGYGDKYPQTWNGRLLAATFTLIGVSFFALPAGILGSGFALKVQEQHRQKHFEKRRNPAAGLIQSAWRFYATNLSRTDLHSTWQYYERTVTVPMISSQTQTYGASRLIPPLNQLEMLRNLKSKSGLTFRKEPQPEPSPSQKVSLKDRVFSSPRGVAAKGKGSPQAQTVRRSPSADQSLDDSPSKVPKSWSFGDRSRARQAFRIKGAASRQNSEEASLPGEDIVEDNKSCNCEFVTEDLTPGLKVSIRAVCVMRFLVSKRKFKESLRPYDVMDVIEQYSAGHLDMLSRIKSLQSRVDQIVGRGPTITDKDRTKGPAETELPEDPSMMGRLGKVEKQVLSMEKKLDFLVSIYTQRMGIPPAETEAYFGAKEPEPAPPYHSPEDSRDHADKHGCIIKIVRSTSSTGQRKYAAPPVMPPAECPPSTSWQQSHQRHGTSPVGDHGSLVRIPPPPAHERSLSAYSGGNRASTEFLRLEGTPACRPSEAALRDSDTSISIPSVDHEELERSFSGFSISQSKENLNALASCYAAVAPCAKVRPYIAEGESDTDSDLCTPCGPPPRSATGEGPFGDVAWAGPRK
KCNQ2 block baseline – also measured in KCNQ2 block; calls as there; B-score; measured here: initial fluorescence intensity artifact check;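 brightness before thallium and not channel activity; 0 = typical well and far values either way flag optical interference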
* = called active by the depositor; i = inactive.

Start of the data: the first 2 records, to show the layout:
The line under a structure holds: KCNQ2 block | KCNQ2 block baseline
Cc1noc(C)c1CSc1nnc2sc3ccccc3n12
  i | -0.63
Cc1cnc(C(=O)OCC(=O)N2CCN(S(=O)(=O)c3ccc(Cl)cc3)CC2)cn1
  i | -0.46

All compounds of this part (from the top)
The line under a structure holds: KCNQ2 block | KCNQ2 block baseline
Cc1noc(C)c1CSc1nnc2sc3ccccc3n12
  i | -0.63
Cc1cnc(C(=O)OCC(=O)N2CCN(S(=O)(=O)c3ccc(Cl)cc3)CC2)cn1
  i | -0.46
O=C(NC(=S)Nc1ccc(N2CCOCC2)c(Cl)c1)C(c1ccccc1)c1ccccc1
  i | -0.78
CCCC1S/C(=N/N=C/c2ccc(OC)cc2)N(Cc2ccc(OC)cc2)C1=O (stereo not given)
  i | 0.31
O=[N+]([O-])c1ccc(OCc2cccc(COc3ccc([N+](=O)[O-])cc3)n2)cc1
  i | -0.11
O=C1NC(=Nc2ccccc2Cl)S/C1=C\c1cc([N+](=O)[O-])ccc1O
  i | 6.2
CCOc1ccccc1Nc1nnc(Cc2ccccc2Cl)c(=O)[nH]1
  i | -0.17
O=C1C=C(c2ccccc2)C[C@H](c2cccs2)[C@H]1n1nnc([N+](=O)[O-])n1
  i | -2.3
CCOC(=O)C1CCCN(C2CC(=O)N(c3cccc(C)c3)C2=O)C1 (stereo not given)
  i | -1.7
O=C1CCCc2ccccc2N1Cc1c(Cl)cccc1Cl
  i | 1.1
CCS(=O)(=O)c1ccc(O)c(NC(=O)CCCC(=O)O)c1
  i | 1.6
Cc1ccc(C)c(Nc2ncnc(N)c2[N+](=O)[O-])c1
  i | -0.83
COc1ccc(-c2cc(C(F)(F)F)n3nc(C(=O)NCCCn4ccnc4)cc3n2)cc1
  i | 2.9
CCOc1cc(/C=C(\C#N)c2nc(-c3cccs3)c(NC(C)=O)s2)ccc1O
  i | 3.1
O=C1CCc2cc(NS(=O)(=O)c3ccc(Br)cc3)cc3c2N1CC3
  i | -1.1
O=C(C1=C[C@@H](c2ccc(C(F)(F)F)cc2)C[C@@H](OCCCCO)O1)N1CCN(Cc2ccccc2)CC1
  i | 0.67
O=C(CSc1nc2ccccc2nc1N1CCCCC1)N1CCN(c2ccccc2)CC1
  -7.7* | -0.97*
Cc1cccc(N2CCN(Cc3cc(=O)n4ccsc4n3)CC2)c1C
  i | -0.34
Cc1ccc(-n2nc3c(=O)n(C(C)C(=O)NCc4ccccc4Cl)nc(C)c3c2C)cc1 (stereo not given)
  -8.1* | -0.09*
O=C(Nc1ccccc1C(=O)N/N=C/c1ccco1)c1ccc(Cl)cc1
  i | 1.7
Cc1ccc(S(=O)(=O)N(C)c2ccccc2C(=O)Nc2c(F)cccc2F)cc1
  -5.9* | -0.5*
NC(=NC1CCCCC1)c1ccc([N+](=O)[O-])cc1
  i | -0.92
CCOC(CCn1ccc(O)c(Cc2ccc(Cl)cc2)c1=O)OCC
  i | 0.1
COc1ccc(-c2nc(CS(=O)(=O)CC(=O)NCc3cccc(OC)c3OC)c(C)o2)cc1
  i | 0.24
O=C1C(Cc2ccc(F)cc2)SC(=Nc2ccccc2)N1c1ccccc1 (stereo not given)
  i | -0.53
CN(C)CCN(C(=O)c1ccc2ccccc2c1)c1nc2c(F)cc(F)cc2s1
  i | 1.7
CCOC(=O)C1=C(COc2ccc(C)cc2)NC(=O)NC1c1cc(C)ccc1C (stereo not given)
  i | -0.5
O=c1c2c3c(sc2ncn1/N=C/c1ccc(Br)o1)CCCC3
  i | -1.6
O=C1CCCN1CCCNCC(=O)N1c2ccccc2Sc2ccccc21
  i | -0.4
CCn1[nH]c(=O)c(=Nc2c(C)n(C)n(-c3ccccc3)c2=O)cc1-c1ccc(Cl)cc1
  i | -0.14
O=C(NCc1ccccc1Cl)C1CCC(CNc2nc(=S)[nH]c3ccccc23)CC1 (stereo not given)
  i | 0.12
NC(=O)C1CCN(C(=O)c2ccc(NC3=NC4CS(=O)(=O)CC4S3)cc2)CC1 (stereo not given)
  i | 1.5
COC(=O)c1ccc(C(=O)N2CCCC(CNC(=O)c3ccc(F)cc3)C2)cc1 (stereo not given)
  i | -0.36
Cc1ccc(C(=O)OCC(=O)N2CCOCC2)cc1
  i | -0.56
CCN(C(=O)C1CCCN(c2nc(-c3ccc(OC)cc3)no2)C1)c1ccccc1F (stereo not given)
  i | 1.3
CN(Cc1ccccc1)S(=O)(=O)c1cn(C)cn1
  i | -0.19
CN1CCN(c2ccc(-c3ccnn3C(=O)Nc3cccc(C(F)(F)F)c3)cc2)CC1
  i | 0.21
O=c1c2ccsc2ncn1Cc1ccc(Cl)cc1
  i | -1.5
O=C(CCc1nc(-c2ccccc2)no1)N1CCCC1
  i | -0.02
COCCN1CN(S(=O)(=O)c2cccc(Cl)c2)c2nc3ccccc3nc21
  i | 4.1
NC(=O)CC[C@@H]1NC(=O)[C@@H]2CCCN2C(=O)c2cc([N+](=O)[O-])cc(I)c2NCCCC[C@@H](C(=O)NC(CC(=O)O)C(N)=O)NC1=O (stereo not given in full)
  i | 0.96
Nn1c(SCc2nc3ccccn3c2Br)nnc1-c1cccnc1
  i | 1.6
COc1ccc(Br)cc1CN(C)C(C)C(=O)Nc1cc([N+](=O)[O-])ccc1OC (stereo not given)
  i | 1.2
CC(C)(C)N(Cc1ccccc1)C(=O)c1ccc(Br)o1
  i | 1.3
CN(C)c1ccc(NC(=S)N(CCc2ccccc2)C2CC(=O)N(c3c(Cl)cccc3Cl)C2=O)cc1 (stereo not given)
  i | -0.04

Whole records as entered above:
O=C(CCc1nc(-c2ccccc2)no1)N1CCCC1 across the screens: KCNQ2 block: i; KCNQ2 block baseline: -0.02
CCN(C(=O)C1CCCN(c2nc(-c3ccc(OC)cc3)no2)C1)c1ccccc1F (stereo not given) across the screens: KCNQ2 block: i; KCNQ2 block baseline: 1.3

Next section:
The line under a structure holds: KCNQ2 block | KCNQ2 block baseline
CC1CC(C)(C)NC(=S)N1CCC(=O)N1CCN(Cc2ccccc2)CC1 (stereo not given)
  i | 1.2
COc1cccc(C(=O)NC2CCCc3c2cnn3-c2ccc(C)c(C)c2)c1OC (stereo not given)
  i | 0.17
COc1ccc(NC(=O)N2CCC(c3ccccc3)C2)c(OC)c1 (stereo not given)
  i | 1.6
O=C(COc1ccccc1F)Nc1cc(S(=O)(=O)N2CCOCC2)ccc1N1CCOCC1
  i | 0.43
Cc1c(C)c(C)c(S(=O)(=O)NCCc2ccncc2)c(C)c1C
  i | 0.53
COc1ccc(/C=C(\NC(=O)c2ccc([N+](=O)[O-])cc2)C(=O)NCCCn2ccnc2)cc1
  i | -0.54
CCn1c(COc2ccc(C)cc2)nnc1SCC(=O)NCc1ccco1
  i | 6
CCc1nc(NCCC(C)C)c2nnn(Cc3ccccc3)c2n1
  i | -0.42
CCn1c(SCC(=O)NCC(=O)Nc2ccc(F)cc2)nnc1-c1ccncc1
  i | 0.81
C=CCNC(=O)CSc1ccc(Cl)cc1
  i | -1.5
c1cc2c(cc1C1CCCCC1)c1c3n2CCCNC3CCC1 (stereo not given)
  -12* | -0.05*
Cc1nn2c(NCCCn3ccnc3)cc(C(C)C)nc2c1-c1ccccc1
  i | 4.5
COc1ccccc1N1CN(Cc2ccccc2)CNC1=S
  i | -0.66
COc1ccc(C(=O)COC(=O)C(CC(C)C)N2C(=O)c3ccccc3C2=O)cc1 (stereo not given)
  i | -2.2
Cc1ccc(C)c(OCC(=O)O/N=C(\N)c2cccnc2)c1
  i | -1.9

Other structures follow:
| Molecule | KCNQ2 block | KCNQ2 block baseline |
| --- | --- | --- |
| CCC(=O)N(C)CCc1cc2c(c(OC)c1/C=N/NC(=O)c1ccccc1O)OCO2 | i | -0.59 |
| Cc1ccc(C(C)C)c(OCCN(C)C)c1 | i | 0.67 |
| COc1ccc(/C=C/C(=O)C2(O)CCCCC2)cc1OC | i | 1.5 |
| C/C(CC(=O)Nc1cccc(C(F)(F)F)c1)=N\NC(=O)C1CCCCC1 | i | 1.5 |
| Cc1ccc(N2C(=O)C(Cl)=C(N3CCCCCC3)C2=O)c(C)c1 | i | 0.76 |
| O=C(NCCN1CCN(Cc2ccccc2)CC1)c1cc2c(=O)[nH]c3ccccc3c2s1 | i | 0.84 |
| O=C(c1ccccc1)c1cn[nH]c1-c1ccccc1O | i | -0.06 |
| COCCNC(=O)c1ccccc1NC(=O)C1COc2ccccc2O1 (stereo not given) | i | 1.1 |
| CC(C)c1ccccc1NC1=CC(=O)CC(C)(C)C1 | i | -0.98 |
| CCOCC(=O)Nc1nnc(Cc2ccc(OC)c(OC)c2)s1 | i | 2.5 |
| COc1ccc(SC[C@H](Cc2ccccc2)N2CCN(CCc3ccccc3)CCC2=O)cc1 | i | -2.5 |
| C=CCN=C1N[C@@H](c2ccccc2)C(C(=O)OC)=C(C)N1CC | i | 0.62 |
| COc1ccc(NC(=O)NCCN2C(=O)C3C4C=CC(C4)C3C2=O)cc1 (stereo not given) | i | 0.05 |
| COc1cccc(-c2nc(SC)nc3sc(C(=O)NC(C)(C)C)c(N)c23)c1 | i | -0.85 |
| COC(=O)c1ccc(Cn2nnc3c(=O)[nH]c(C4CCCN(S(=O)(=O)c5ccccc5Cl)C4)nc32)cc1 (stereo not given) | i | -1.1 |
| Cc1cc(C)c(S(=O)(=O)N2CCOCC2)cc1NS(=O)(=O)c1cc(OCC(N)=O)c(C)cc1Cl | i | 2.2 |
| CC1Cc2ccccc2N1C(=O)CCn1c(=O)oc2ccccc21 (stereo not given) | i | 1.4 |
| Cc1cc(C)nc(NS(=O)(=O)c2ccc(NC(=O)c3snnc3C)cc2)n1 | i | 0.38 |
| CN(CCN1CCc2ccccc2C1)Cc1nc(-c2ccc3c(c2)OCO3)no1 | i | 2 |
| CCc1ccc(C2C(C#N)=C(N)Oc3n[nH]c(CC(=O)OC)c32)cc1 (stereo not given) | i | 0.37 |
| S=c1[nH]nc(Nc2cccc3ccccc23)s1 | i | 0.67 |
| CC(NCc1cccc(OCc2ccccc2)c1)C(O)c1ccccc1 (stereo not given) | i | -0.91 |
| CCOC(=O)C1CCN(C(=O)C2(NC(=O)Nc3ccc(F)cc3F)CCCCC2)CC1 | i | -1.1 |
| O=C1Nc2ccccc2N=C(c2ccccc2)c2ccccc21 | i | -1.2 |
| COc1ccccc1CNC(=O)c1c(N)n(CCCN2CCOCC2)c2nc3ccccc3nc12 | i | 2.3 |
| Cc1ccc(NC(=O)c2c(C)nc(Nc3nc4ccccc4o3)nc2C)cc1 | i | 0.99 |
| COc1ccccc1NC(=O)N(CCCN1CCOCC1)Cc1cc2cc3c(cc2[nH]c1=O)OCO3 | i | 0.41 |
| CCOC(=O)C1(CC)NC(c2ccc(OC)c(OC)c2)C2C(=O)N(c3cccc(C(C)=O)c3)C(=O)C21 (stereo not given) | i | 0.01 |
| Nc1cc(C(=O)OCC(=O)NNC(=O)c2ccccc2)ccc1Cl | i | 0.92 |
| CCN1C(=O)C(c2ccc(O)cc2)(c2ccc(O)cc2)c2ccccc21 | i | 0.91 |
| CCn1c(SCc2nc3ccccc3c(=O)[nH]2)nnc1-c1cccnc1 | i | -1.5 |
| C/C(CC(=O)Nc1cccc(Br)c1)=N\NC(=O)c1ccc(O)cc1O | i | -2.9 |
| CC(=O)Nc1ccc2nc(NC(=O)CCc3ccccc3)sc2c1 | i | 0.63 |
| CC1=CC(C)(C)N(C(=O)CCl)c2cc(C)ccc21 | i | 0.96 |
| O=C(COCc1cc(-c2ccc3c(c2)OCO3)on1)N1CCN(c2ccc(F)cc2)CC1 | i | -2.3 |
| CN(CC(=O)Nc1ccccc1Br)C(=O)c1ccc(COc2ccccc2)cc1 | i | -0.77 |
| Nn1c(SCc2ccccc2)nnc1C1CCCCC1 | i | -0.9 |
| CN1CCN(c2ccc(S(=O)(=O)N3CCCCC3)cc2NC(=O)c2ccc(F)cc2F)CC1 | i | -1.8 |
| Cc1ccn2c(=O)nc(SCC(=O)NCc3ccco3)nc2c1 | i | -0.27 |
| COc1ccc(OCC(=O)Nn2c(-c3cccc(OC)c3)nc3ccccc3c2=O)cc1 | i | 4.8 |

Brought forward from above: two compounds, followed by the next part.
| Molecule | KCNQ2 block | KCNQ2 block baseline |
| --- | --- | --- |
| Cc1ccn2c(=O)nc(SCC(=O)NCc3ccco3)nc2c1 | i | -0.27 |
| COc1ccc(OCC(=O)Nn2c(-c3cccc(OC)c3)nc3ccccc3c2=O)cc1 | i | 4.8 |
| Cc1cc(Br)cn2cc(C(=O)O)nc12 | i | 0.01 |
| COCCNC(=O)CN(c1ccc(F)cc1)S(=O)(=O)c1ccc2c(c1)OCCO2 | i | -1.3 |
| Cc1ccc(-n2c(CCc3ccccc3)nnc2SCC(=O)NCc2ccccc2)cc1C | i | -0.53 |
| CN(C)S(=O)(=O)c1ccc(C(=O)Nc2ccc(F)cc2F)cc1 | i | -0.64 |
| C/C(=N\NC(=O)COc1ccc(C#N)cc1)c1ccccc1OC(F)F | i | -0.63 |
| CCCCN(C(=O)CCn1c(=O)oc2ccccc21)c1ccccc1 | i | 1.4 |
| O=c1cc(N2CCc3ccccc32)[nH]c(=O)n1-c1ccccc1 | i | 1.2 |
| O=C(Nc1ccc(Br)cn1)c1cccc(-c2cc3ccccc3oc2=O)c1 | i | 1.8 |
| O=C(NCCc1ccncc1)C12CC3CC(CC(C3)C1)C2 | i | -0.64 |
| CCN(c1ccc(OC)cc1)S(=O)(=O)c1cc(-c2cc(C)no2)ccc1C(C)C | i | 0.75 |
| Cc1ccc(-n2cc(CN(C)Cc3nccn3C)c(-c3ccc(F)cc3)n2)cc1 | i | -1.8 |
| CC(C)OC(=O)CSc1nnc(CNc2nc(-c3ccccc3)cs2)n1C | i | -0.51 |
| CCOC(=O)c1c(-c2ccc(C)o2)csc1NC(=S)NC(=O)c1ccccc1Br | i | -3.2 |
| CCOC(=O)C1=C(N)N(c2ccccc2Oc2ccccc2)C(=O)C1 | i | -0.86 |
| COc1ccc(OC)c(C(=O)c2coc3ccc(OC(C)=O)cc23)c1 | i | 0.04 |

Source: PubChem BioAssay (Johns Hopkins Ion Channel Center)

Only part of the results is shown, so the mix of outcomes need not match the whole.
